Screens (PubChem BioAssay)
Rango dissoc inh = inhibitors of RanGTP-induced Rango-importin beta complex dissociation. hit rate 0.071% among 340,000. Biochemical FRET Rango-importin beta, RanGTP-induced dissociation. AID 540253. Potency, µM (doses to about 46.1 µM), for inactives: top-dose activity change, negative = inhibition. O95149+P62826; active means falling FRET ratio curve, often poorly fitted, with flat reads before Ran was added; inconclusive means other falling curves, or compound fluorescence or quenching; inactive means flat or rising ratio curve;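 further: potency means the concentration at half of the fitted maximal effect; % of control where 0% means no effect; nearly all actives have a fitted effect of over 45% in size; -100% = wells without RanGTP and RCC1; the record marks most hits as doubtful in a second field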
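Rango (0.1 uM)–importin beta (0.25 uM) complex; RanGTP-RCC1 trigger; 45 min RT; CFP/YFP FRET read.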
Rango complex inh = prevents formation of the Rango-importin beta complex. Q14974. Rango CFP/YFP FRET sensor + importin beta, 45 min. Potency, µM (titrated, usually from 92.2 µM), without a hit: at the top dose inhibition of complex formation. hit rate 0.031% among 340,000. AID 540263; active = rising FRET ratio curve, often small or poorly fitted; inconclusive = mostly compound fluorescence or quenching in the first reads; inactive = flat curves in all reads;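 further: potency means the concentration at half of the fitted maximal effect; 0% = DMSO wells and 100% = buffer wells lacking importin beta; nearly all actives have a fitted effect of over 15% in size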
Target sequence (Q14974 whole entry, looked up): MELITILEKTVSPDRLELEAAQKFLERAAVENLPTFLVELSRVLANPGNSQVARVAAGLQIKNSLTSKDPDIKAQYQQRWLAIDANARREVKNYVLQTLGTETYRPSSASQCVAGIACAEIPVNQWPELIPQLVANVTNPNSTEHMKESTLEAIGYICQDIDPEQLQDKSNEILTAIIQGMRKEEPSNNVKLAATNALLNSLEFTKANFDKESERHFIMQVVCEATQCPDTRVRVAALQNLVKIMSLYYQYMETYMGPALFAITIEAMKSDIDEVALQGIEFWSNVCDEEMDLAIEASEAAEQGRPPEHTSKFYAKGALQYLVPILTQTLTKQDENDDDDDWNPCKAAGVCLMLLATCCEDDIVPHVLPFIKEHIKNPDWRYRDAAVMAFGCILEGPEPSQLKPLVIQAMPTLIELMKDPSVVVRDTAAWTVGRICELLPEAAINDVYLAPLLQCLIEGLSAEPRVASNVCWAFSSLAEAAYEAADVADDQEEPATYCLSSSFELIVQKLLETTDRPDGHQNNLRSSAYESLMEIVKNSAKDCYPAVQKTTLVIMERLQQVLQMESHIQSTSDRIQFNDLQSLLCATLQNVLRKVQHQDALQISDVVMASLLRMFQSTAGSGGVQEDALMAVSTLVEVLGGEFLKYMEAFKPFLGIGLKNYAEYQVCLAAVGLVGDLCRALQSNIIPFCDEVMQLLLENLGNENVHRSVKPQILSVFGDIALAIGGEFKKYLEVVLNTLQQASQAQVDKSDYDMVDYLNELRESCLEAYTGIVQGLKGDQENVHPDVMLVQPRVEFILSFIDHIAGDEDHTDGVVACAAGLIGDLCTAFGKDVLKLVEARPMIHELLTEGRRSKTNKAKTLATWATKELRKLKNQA
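FRET biosensor (snurportin 1 IBB flanked by EYFP and cerulean), 50 nM, with compound 5 min, then 0.125 microM importin beta in PBS, 1 mM DTT, 0.02% Tween-20, 0.1% BSA. CFP/YFP ratio read after 45 min at room temperature; pre-read flags interference.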
GLA inh pH 4.5 = inhibitors of human alpha-galactosidase A at pH 4.5. 230,000 tested, under 10 active. P06280. purified enzyme, 4-MU-alpha-Gal fluorescence, pH 4.5. AID 1467. activity change, negative = inhibition, % at 105 µM; inconclusive = small, poorly fitted or top-dose-only inhibition, or a rising curve; inactive = flat fitted curve, though single readings scatter; no compound was filed as active;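 further: 0% = full activity with enzyme and -100% = basal without enzyme; dose as in the result columns while the protocol names 77 µM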
miR-21 reporter = raises the signal of a miR-21 reporter | HeLa miR-21 FLuc reporter, luciferase, 48 h | Potency, µM (series often up to 38.3 µM), inactives show at the top dose reporter change, positive = more light | 340,000 tested, under 10 active | AID 2288; active = well fitted rising curve with a large enough effect; inconclusive = small, poorly fitted or top-dose-only effect; inactive = no such curve, though single readings can be large or run the other way;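 further: % of control where 0% means no effect; miR-21 action dims this reporter so a rising signal means less miR-21 action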
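HeLa miR-21-FLuc reporter line, endogenous miR-21; 2000 cells/well in DMEM/10% FBS; compound titration up to ~40uM final, 48 h, 37 degree Celsius; luciferase detection reagent, 15 min lysis, CCD luminescence.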
* marks the source's active call; other numbers are inactive results; u = inconclusive; x = not tested or not shown; & = joins results of further samples. Some of the compounds tested; the hit share may differ from the screen's.

entry | Compound | Rango dissoc inh | Rango complex inh
1 | N#CCC(=O)c1ccccc1Oc1ccc(Cl)cc1 | -1% | 0.8%
2 | Nc1ncc(Br)cc1S(=O)(=O)NCCC(=O)Nc1cccc(Cl)c1 | 12% | -2.8%
3 | COc1ccccc1C(=O)NCCN1CCN(c2ccccc2)CC1 | -11% | 0.5%
4 | COc1ccc(-n2nnnc2SCC(=O)Nc2nc3c(s2)CCCC3)cc1 | -5% | 0.9%
5 | CCC(C)C(NC(=O)c1ccccc1NC(=O)c1ccco1)C(=O)NNC(=O)c1ccc(OC)cc1 (stereo not given) | -11% | 3.4%
6 | O=C(Nc1ccccc1)C1=C[C@H](c2csc3ccccc23)C[C@H](OCCCCO)O1 | 6% | -1.9%
7 | S=C(Nc1ccc(Oc2ccccc2)cc1)Nc1cccnc1 | 0% | -1.9%
8 | CN(Cc1ccc(F)cc1)C(=O)CN1C(=O)c2ccccc2S1(=O)=O | -2% | -3.6%
9 | CCc1noc(C)c1C(=O)NCCc1ccccc1 | -10% | -2.7%
10 | O=C(CCN1N=C(c2ccccc2)CCC1=O)NCCCN1CCOCC1 | -10% | -1.8%
11 | CSCCNCc1cn(-c2ccc(F)cc2F)nc1-c1ccccc1C | -5% | -2.9%
12 | CC(c1cccnc1)N(CCN(C)C)C(=O)Nc1ccc(Cl)cc1 (stereo not given) | -3% | -0.5%

entry | GLA inh pH 4.5 | miR-21 reporter
1 | 4 | 0%
2 | -17 | -3%
3 | x | -4%
4 | 7 | 5%
5 | -9 | -5%
6 | 1 | -1%
7 | x | -7%
8 | x | x
9 | x | x
10 | x | 2%
11 | 0 | -1%
12 | -2 | -17%

Going on with the list:
entry | Compound | Rango dissoc inh | Rango complex inh
13 | NC(=O)c1cccnc1Sc1ccc(Cl)cc1 | 10% | 0.8%
14 | O=C(NCc1ccc(F)cc1)C(c1ccco1)N(C(=O)c1csnn1)C1CC1 (stereo not given) | -6% | 0.7%
15 | O=C(Cn1cnc2ccccc21)N/N=C/c1ccccn1 | u | 0.4%
16 | O=C(Nc1ccccc1C(=O)O)c1ccc(NC(=O)c2ccc(Br)o2)cc1 | 6% | -1.8%
17 | O=C(NC1CCCCC1)c1cc2nc(-c3ccco3)cc(C(F)(F)F)n2n1 | u | u
18 | COc1cc(/C=N/NC(=O)c2cccnc2)ccc1OCC(=O)Nc1c(C)cc(C)cc1C | -14% | 0.6%
19 | CCCNC(=O)C(NS(=O)(=O)c1ccc2c(c1)c(=O)n(C)c(=O)n2C)c1ccccc1 (stereo not given) | 23% | 2.9%
20 | CC1(C)CC(=O)C(=C2SCCCS2)C(=O)C1 | -22% | 4.2%
21 | COC(=O)C1CC(=O)N(CCc2c[nH]c3ccccc23)C1 (stereo not given) | -8% | 5.1%
22 | CS(=O)(=O)c1ccccc1C(=O)NCCC(c1ccccc1)c1ccccc1 | 7% | 0.3%
23 | O=S(=O)(Nc1ccc(Cc2ccncc2)cc1)N1CCCC1 | u | 2.4%
24 | COc1ccc(CCNC(=O)c2c(C)nn(CC(C)C)c2Cl)cc1 | 1% | 0.8%

entry | GLA inh pH 4.5 | miR-21 reporter
13 | -1 | -7%
14 | x | 0%
15 | 8 | -5%
16 | 5 | 11%
17 | 0 | -13%
18 | 4 | -3%
19 | 1 | -7%
20 | 1 | -7%
21 | -2 | 7%
22 | x | 1%
23 | 5 | -2%
24 | x | -6%

New compounds follow:
entry | Compound | Rango dissoc inh | Rango complex inh
25 | COc1ccc(CNC(=O)[C@H](C)[C@@H]2C[C@@]2(C)[C@@H](NC(=O)OCc2ccccc2)c2ccccc2)cc1OC | -12% | -0.8%
26 | O=C(CCCn1c(SCC(=O)Nc2ccccc2Cl)nc2ccccc2c1=O)NCC1CCCO1 (stereo not given) | 5% | 2.3%
27 | COC(=O)C1=C(C)OC(N)=C(C#N)C1c1ccc(OC)c(OC)c1OC (stereo not given) | -10% | u
28 | COc1cc2cc(CN(Cc3cccs3)C(=S)Nc3ccc(C)cc3)c(=O)[nH]c2cc1OC | -9% | -5.2%
29 | S=c1[nH]nc(COc2ccccc2)n1/N=C/C=C/c1ccco1 | -1% | -2.0%
30 | COc1ccccc1CCc1nnc(CCC(=O)NCC2CCCO2)o1 (stereo not given) | 0% | -1.4%
31 | Cc1ccnc(NC(=O)C(Cc2ccccc2)NC(=O)c2ccccc2)c1 (stereo not given) | 0% | 0.0%
32 | CC(C)C(NS(=O)(=O)c1cccs1)C(=O)NCCCN1CCCCCC1 (stereo not given) | 16% | -1.0%
33 | Cc1ccc(S(=O)(=O)N2CCOCC2)cc1NC(=O)COc1cccc(-n2cnnn2)c1 | -7% | 0.6%
34 | CCCN1C(=S)c2ccccc2C1c1ccccc1 (stereo not given) | 0% | -3.6%
35 | Cn1c(Cn2nnc3ccccc32)nnc1SCC(=O)NCc1ccc2c(c1)OCO2 | 14% | 4.1%
36 | CC(=O)Nc1nnc(-c2ccccn2)o1 | -20% | u

entry | GLA inh pH 4.5 | miR-21 reporter
25 | -2&-1 | 0%
26 | x | -1%
27 | -3 | -8%
28 | -23 | 11%
29 | -4 | 5%
30 | x | -4%
31 | x | x
32 | x | 0%
33 | x | x
34 | x | -1%
35 | 7 | 8%
36 | -9 | -9%

(next part)
entry | Compound | Rango dissoc inh | Rango complex inh
37 | O=[N+]([O-])c1cc(/C=N/O)ccc1Sc1ccccc1 | 2% | -2.3%
38 | Cc1cc2oc(=O)cc(C)c2cc1NC(=O)CCl | 3% | 0.5%
39 | CCN(CC)S(=O)(=O)c1ccc(N2CCOCC2)c(NC(=O)c2cc(C)cc(C)c2)c1 | 1% | 6.7%
40 | Cn1cnnc1SCC(=O)N(Cc1ccc2c(c1)OCO2)C1(C(=O)NC2CCCCC2)CCCC1 | 7% | 0.3%
41 | c1cncc(-c2noc(-c3ccc4ccccc4c3)n2)c1 | u | 1.9%
42 | CCOCCCNC(=O)C1CC(=O)N(C2CCCC2)C1 (stereo not given) | 1% | -2.0%
43 | CC(C)C[C@@H](COc1ccccc1)N1CCN(CC(C)C)CCC1=O | u | 0.2%
44 | CCOC(=O)CSc1nnc2n(Cc3ccccc3)c(=O)c3c4c(sc3n12)CCC4 | 2% | 1.8%
45 | CC(=O)Oc1cc2oc(=O)cc(C)c2cc1OC(C)=O | u | u
46 | COc1ccc(OC)c(C2C(C#N)=C(N)N(N(C)C)C3=C2C(=O)CCC3)c1 (stereo not given) | 9% | -5.2%
47 | Cc1cc(C)cc(CSCC(=O)NN=C2CCCCCC2)c1 | 4% | 7.9%
48 | COc1ccc(C(=O)O/N=C(\N)Cc2ccc(Cl)c(Cl)c2)cc1OC | -10% | 3.8%

entry | GLA inh pH 4.5 | miR-21 reporter
37 | -3 | -35%
38 | -8 | 29%
39 | -2 | -2%
40 | -2 | -2%
41 | x | -46%
42 | 6 | -3%
43 | x | -12%
44 | 1 | -5%
45 | u | -6%
46 | x | 3%
47 | 14 | -13%
48 | -3 | u

Next structures follow:
entry | Compound | Rango dissoc inh | Rango complex inh
49 | Cc1ccccc1C(OCC(O)CN1CCCCC1CCO)c1ccccc1 (stereo not given) | 22% | 0.1%
50 | COc1ccc(OC(=O)c2cccc(S(=O)(=O)N3CC(C)OC(C)C3)c2)cc1 (stereo not given) | 23% | -2.4%
51 | O=C(COc1ccccc1Cl)NNC(=O)c1ccc2nc[nH]c2c1 | -4% | 0.2%
52 | Cc1ccc(CN2CCSc3ccc(C(=O)NCc4ccccn4)cc32)cc1 | 11% | 0.6%
53 | C[C@]12CCC(=O)C=C1CC[C@@H]1[C@@H]2CC[C@@]2(C)[C@H]1CC[C@@]21CCC(=O)O1 | -1% | 3.2%
54 | Cc1ccc(C)c(NC(=O)c2cc(-c3cccnc3)nc3ccccc23)c1 | 1% | 0.2%
55 | CCN(CC)S(=O)(=O)c1ccc2c(c1)nc(CCC(=O)O)n2CC | 6% | -1.8%
56 | Cc1ccc(CNC(=O)C(=O)NCC2OCCCN2S(=O)(=O)c2cccs2)cc1 (stereo not given) | 10% | -1.7%
57 | CC(=O)c1ccc(S(=O)(=O)NC2CC2)cc1 | 3% | 1.7%
58 | COc1ccc(CCc2nc(C)ccc2O)cc1 | -4%&3% | u
59 | COc1ccc(C)cc1N(CC(=O)NC1CCCC1)C(=O)Cn1nnc(-c2ccc(C)o2)n1 | -18% | 1.1%
60 | Cn1c(SCC(=O)NCCNC(=O)CSc2nnc(C(F)(F)F)n2C)nnc1C(F)(F)F | -2% | -2.5%

entry | GLA inh pH 4.5 | miR-21 reporter
49 | 4 | -1%
50 | x | x
51 | x | x
52 | 1 | 0%
53 | x | -5%
54 | 5 | 1%
55 | -3 | 0%
56 | x | 0%
57 | x | -3%
58 | -1&0 | -46%&-39%
59 | x | -3%
60 | -4 | -2%

In the list so far, these have a COOH group:
entry | Compound | Rango dissoc inh | Rango complex inh
16 | O=C(Nc1ccccc1C(=O)O)c1ccc(NC(=O)c2ccc(Br)o2)cc1 | 6% | -1.8%
55 | CCN(CC)S(=O)(=O)c1ccc2c(c1)nc(CCC(=O)O)n2CC | 6% | -1.8%

entry | GLA inh pH 4.5 | miR-21 reporter
16 | 5 | 11%
55 | -3 | 0%

Remaining list, next part
entry | Compound | Rango dissoc inh | Rango complex inh
61 | Cc1cc(Cl)ccc1OCC(=O)NCC(=O)N/N=C/c1ccco1 | 8% | 0.2%
62 | COc1cc(/C=N/NS(=O)(=O)c2ccc(Br)cc2)ccc1O | 1% | 5.2%
63 | CCN(CC)CCSc1nnc2c3cc(C)ccc3n(Cc3ccccc3)c2n1 | 30% | 5.2%
64 | CCC(=O)N1CCN(CCN=CC2=C(O)CC(c3cccs3)CC2=O)CC1 (stereo not given) | -5% | 2.2%
65 | CCCOc1ccccc1C(=O)N1CCNC(=O)C1CC(=O)OC(C)C (stereo not given) | 10% | 2.5%
66 | CC(C)Sc1cc(N2CCOCC2)nc(-c2ccccc2)n1 | 0% | 5.1%
67 | O=C1CC(NCc2ccncc2)C(=O)N1c1ccc(Cl)cc1 (stereo not given) | 1% | u
68 | Cc1ccccc1OCc1nnc(SC(C)C(=O)O)n1Cc1ccccc1 (stereo not given) | 2% | -0.1%
69 | Cc1ccc(-n2nnc3c(=O)n(CC(=O)c4ccccc4)cnc32)cc1 | 1% | 3.4%

entry | GLA inh pH 4.5 | miR-21 reporter
61 | -2 | 1%
62 | x | -15%
63 | -4 | 20%
64 | -1 | 0%
65 | x | -3%
66 | 3 | -4%
67 | -3 | 1%
68 | 15 | 0%
69 | 3 | 1%

Entries shown so far containing an aryl thioether with sulfur outside any ring:
entry | Compound | Rango dissoc inh | Rango complex inh
4 | COc1ccc(-n2nnnc2SCC(=O)Nc2nc3c(s2)CCCC3)cc1 | -5% | 0.9%
13 | NC(=O)c1cccnc1Sc1ccc(Cl)cc1 | 10% | 0.8%
26 | O=C(CCCn1c(SCC(=O)Nc2ccccc2Cl)nc2ccccc2c1=O)NCC1CCCO1 (stereo not given) | 5% | 2.3%
35 | Cn1c(Cn2nnc3ccccc32)nnc1SCC(=O)NCc1ccc2c(c1)OCO2 | 14% | 4.1%
37 | O=[N+]([O-])c1cc(/C=N/O)ccc1Sc1ccccc1 | 2% | -2.3%
40 | Cn1cnnc1SCC(=O)N(Cc1ccc2c(c1)OCO2)C1(C(=O)NC2CCCCC2)CCCC1 | 7% | 0.3%
44 | CCOC(=O)CSc1nnc2n(Cc3ccccc3)c(=O)c3c4c(sc3n12)CCC4 | 2% | 1.8%
60 | Cn1c(SCC(=O)NCCNC(=O)CSc2nnc(C(F)(F)F)n2C)nnc1C(F)(F)F | -2% | -2.5%
63 | CCN(CC)CCSc1nnc2c3cc(C)ccc3n(Cc3ccccc3)c2n1 | 30% | 5.2%
66 | CC(C)Sc1cc(N2CCOCC2)nc(-c2ccccc2)n1 | 0% | 5.1%
68 | Cc1ccccc1OCc1nnc(SC(C)C(=O)O)n1Cc1ccccc1 (stereo not given) | 2% | -0.1%

entry | GLA inh pH 4.5 | miR-21 reporter
4 | 7 | 5%
13 | -1 | -7%
26 | x | -1%
35 | 7 | 8%
37 | -3 | -35%
40 | -2 | -2%
44 | 1 | -5%
60 | -4 | -2%
63 | -4 | 20%
66 | 3 | -4%
68 | 15 | 0%
